Bead autofluor: counter-screen for toxin protease inhibitors: compound fluorescence | fluorescence intensity (test concentration not listed) | hit rate 3.1% among 360,000 | compound autofluorescence counterscreen, microsphere flow cytometry; hits give high values;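 active = at least 3 SD above the mean of all compounds, about 16000 in these data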;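 note: 100 nL of 1 mM stock went into each well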
RN4220 kill: growth inhibition of S. aureus RN4220, primary screen, OD600 | 16 h | inhibition, % (concentration not given with the values) | hit rate 0.33% among 330,000 | AID 1259311, 2017;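 active = z-score of -3 or lower and OD600 up to 0.18 on both plates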;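 note: plate controls were untreated cells for no effect and reference antibiotic for full effect; stock transfer was 100 nL into about 80 µL; one replicate is shown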
BJeLR lethal: MLPCN primary cell-based screen for lethality selective to Ras in HRASV12 cells. inhibition, % (concentration not given with the values). hit rate 0.17% among 300,000. BJeLR (HRASV12) viability, CellTiter-Glo ATP luminescence, 48 h; reference of the scale not given here;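 active = replicate mean above 50%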;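 note: 50 nL library stock added to about 25 µL; numbers are from one replicate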
ugtP null kill: growth inhibition of ugtP-null S. aureus, primary screen, RN4220 ugtP deletion, OD600; 16 h; some inactives read as strong as hits; growth inhibition, % (test concentration not listed); hit rate 0.54% among 330,000; AID 1259309, 2017;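 active = z-score under -3 and OD600 up to 0.15 on both plates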;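 note: plate controls were untreated wells for no effect and antibiotic for full effect; wells of about 80 µL received 100 nL stock; the first replicate is given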
Mtb hypoxia rep: PubChem AID 1159583; hit rate 0.1% among 300,000; fluorescence inhibition, % (no concentration beside the values); M. tuberculosis hypoxia-regulated fluorescent reporter, fluorescence;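 active = 35 to 45% if threefold the growth effect, above 45% if 1.5-fold the growth effect; inactive = the rest, general growth blockers included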;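 note: wells of about 50 µL received 100 nL stock; 0% = vehicle wells and 100% = reference inhibitor wells; whole bacteria with a GFP reporter of the hypoxia response; strong numbers were not always called active; many hits fall short of the cut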
PrP 5UTR inh: inhibition of PrP 5' UTR reporter expression. cell-based PrP 5' UTR mRNA reporter, plate reader. inhibition, % (test concentration not listed). hit rate 0.35% among 340,000. AID 488862, 2010;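 active = every replicate at 50% or more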;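 note: 0 = median of the neutral control wells; tested in H4 reporter cells; numbers are from one replicate; inactives centre near -14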
Mtb hypoxia rep growth: recorded beside Mtb hypoxia rep, whose call it bears; growth inhibition, %; measured here: M. tuberculosis growth (absorbance);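 0% = vehicle and 100% = reference antibiotic; read after six days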
* = called active by the depositor; . = not tested or not shown. Outcome played no part in choosing rows; about 4.1% have a hit in one of these screens.

The line under a structure holds: Mtb hypoxia rep | Mtb hypoxia rep growth | Bead autofluor | RN4220 kill | BJeLR lethal | PrP 5UTR inh | ugtP null kill
OC(CN1CCCCC1)c1ccc2c3c(cccc13)CC2 (configuration not stated)
    21 | 11 | 4001 | -1.6 | . | -22 | -7
COCC(=O)Nc1ccc2c(c1)OCO2
    8 | 5 | 3208 | 6.8 | -5 | -29 | 14
O=C(CC(SCCO)c1ccc([N+](=O)[O-])cc1)c1ccco1 (configuration not stated)
    16 | 9 | 3945 | 15 | -1 | -7 | 0
NC(c1ccccc1)c1ccncc1 (configuration not stated)
    3 | -2 | 3632 | 1.9 | -2 | -4 | 4
O=C(Cc1ccc(F)cc1)N[C@@H]1c2ccccc2CC[C@H]1OCc1ccccc1
    6 | 9 | 3653 | 2.6 | . | -9 | 1
COc1ccc(Cn2nnnc2C(C(C)C)N(Cc2ccco2)Cc2cccs2)cc1 (configuration not stated)
    . | . | 3042 | . | -7 | -15 | .
COCCN(C(=O)c1ccc(OC2CCN(S(=O)(=O)N(C)C)CC2)cc1)C(C)C
    2 | 0 | 3804 | 2.3 | -5 | -19 | 4
COc1cc(C=NNc2nc(=O)[nH]nc2C)ccc1O
    3 | 10 | . | 3.6 | . | . | 3
CCOC(=O)CCn1cc(F)c(=O)n(Cc2ccccc2)c1=O
    -4 | 6 | 8375 | -0.6 | 4 | -11 | 0
COc1ccc(/C=C/C(=O)NC(=S)NNC(=O)c2ccco2)cc1
    5 | 9 | 3187 | 14 | 2 | -9 | 15
O=C(CNS(=O)(=O)/C=C/c1ccccc1)OCC(=O)N1CCC(Cc2ccccc2)CC1
    1 | 4 | 3466 | 6.7 | 1 | -7 | 3
O=C(NC1=NCCS1)C1CC(=O)N(c2ccc(Cl)cc2)C1 (configuration not stated)
    5 | 10 | 4414 | 1.3 | 2 | -16 | 7
CCCn1nnnc1SCC(=O)NCc1ccccc1
    0 | -2 | 3566 | -3.3 | 3 | 8 | -5
CCCn1c(SCC(=O)Nc2ccc(NC(=O)CC)cc2)nc2c1c(=O)n(C)c(=O)n2C
    -9 | -7 | 3786 | -3.4 | 1 | -10 | 1
Cc1cccc(CNC(=O)C2CCC(=O)N(Cc3ccccc3F)C2)n1 (configuration not stated)
    5 | -4 | 4648 | 7.1 | 4 | -10 | 18
CC(=O)Nc1ccc(Cc2ccncc2)cc1
    7 | 9 | 4368 | 2.9 | 1 | -9 | 1
O=C1CC(SCCO)C(=O)N1c1ccccc1 (configuration not stated)
    6 | 5 | 23642* | 2.5 | 8 | -21 | 13
CC(C)C(=O)Nc1cccc(NC(=O)c2ccc(Cl)cc2Cl)c1
    . | . | 1954 | 0.2 | 10 | -17 | 18
O=C(NN1C(=O)c2ccccc2C1=O)C1CC2CCC1C2 (configuration not stated)
    -4 | -6 | 2208 | 2.0 | 7 | -10 | 9
c1ccc(-c2ccccc2OCCn2cncn2)cc1
    . | . | 4631 | 3.4 | 3 | -5 | -3
O=C(CN1C(=O)NC2(CCCC2)C1=O)N1CCN(c2ccc(C(F)(F)F)cc2[N+](=O)[O-])CC1
    -1 | -4 | 2945 | -3.5 | . | -4 | -4
C=CCn1c(CCC(=O)O)ccc1-c1ccc(OC)cc1
    8 | 8 | 11950 | 1.9 | 5 | -8 | 14
CC(=NNc1nc(N2CCOCC2)nc(N2CCOCC2)n1)c1cccc([N+](=O)[O-])c1
    -2 | 5 | . | 5.4 | . | . | 0
COc1ccc(OC)c(C2C(C(=O)Nc3cccnc3)=C(C)NC3=C2C(=O)CCC3)c1 (configuration not stated)
    15 | 1 | 9464 | 2.0 | 3 | -6 | 2
CS(=O)(=O)c1ccc(Cl)c(C(=O)O)c1
    -2 | -1 | 7131 | 2.4 | -3 | -22 | 19
CN1CCN(S(=O)(=O)c2ccc(NC(=S)NC(=O)C(C)(C)C)cc2)CC1
    -5 | 3 | 4089 | 1.6 | -1 | -43 | 9
Cc1ccccc1Nc1nc(N)nc(COC(=O)C2CCCCC2)n1
    13 | 4 | 2791 | 7.4 | -5 | -47 | 6
O=C(/C=C/Nc1ccc(F)cc1F)c1cccs1
    -4 | -2 | 2330 | 7.0 | 9 | 19 | -6
COc1ccc(CCn2c(O)c(C=NCCN3CCCCC3)c(=O)[nH]c2=O)cc1OC
    6 | 8 | 20570* | 0.8 | 4 | -14 | 4
Cc1cc(NC(=O)CSc2nc(N)c(NC(=O)c3ccco3)c(=O)[nH]2)no1
    3 | -3 | 4667 | 4.5 | 2 | -66 | 2

Not a retest: an excerpt of the list.
The line under a structure holds: Mtb hypoxia rep | Mtb hypoxia rep growth | Bead autofluor | RN4220 kill | BJeLR lethal | PrP 5UTR inh | ugtP null kill
COc1ccc(CCn2c(O)c(C=NCCN3CCCCC3)c(=O)[nH]c2=O)cc1OC
    6 | 8 | 20570* | 0.8 | 4 | -14 | 4
Cc1cc(NC(=O)CSc2nc(N)c(NC(=O)c3ccco3)c(=O)[nH]2)no1
    3 | -3 | 4667 | 4.5 | 2 | -66 | 2

Carrying on:
The line under a structure holds: Mtb hypoxia rep | Mtb hypoxia rep growth | Bead autofluor | RN4220 kill | BJeLR lethal | PrP 5UTR inh | ugtP null kill
C=CCn1c(C)cc(C(=O)CSc2nnc(C3CC3)n2C2CC2)c1C
    -6 | -2 | 2868 | 2.3 | . | -16 | 1
CCN(C(=O)CSc1nc(-c2ccccc2)cn1N)c1c(N)n(Cc2ccccc2)c(=O)[nH]c1=O
    -7 | -13 | 4371 | 4.5 | 9 | -11 | 13
O=C1OCC2=C1C(c1ccc(F)cc1)c1cc3c(cc1N2)OCCO3 (configuration not stated)
    7 | 5 | 4956 | 3.8 | . | 54* | 5
O=C(NCCN1CCOCC1)c1cc(-c2ccco2)on1
    2 | -6 | 17211* | 3.2 | 10 | -36 | -2
O=S(=O)(NN=Cc1ccc(F)cc1)c1ccccc1
    1 | -12 | . | 6.3 | . | . | 14
C=CCOC(=O)CCC(=O)Nc1cccc2ccccc12
    . | . | 4815 | 5.6 | 0 | -36 | 15
CCOc1ccc(C2C(C(=O)OC)=CN(C(C)c3ccccc3)C=C2C(=O)OC)cc1 (configuration not stated)
    -6 | 4 | 3927 | -5.8 | 4 | -5 | -1
COc1ccc(S(=O)(=O)NCCOc2ccccc2)cc1-n1cnnn1
    4 | 13 | 4706 | 4.5 | -3 | -4 | 7
CC(C)=CC(=O)Nc1ccc(OCc2ccccc2)cc1
    4 | -3 | 2273 | 10 | -1 | -55 | 9
Cn1c(N)c(C(=O)COC(=O)c2cccc(S(=O)(=O)N3CCCCC3)c2)c(=O)n(C)c1=O
    -7 | 0 | 2239 | 1.1 | -6 | -5 | 3
Cn1cccc1C1C(C#N)=C(N)OC2=C1C(=O)CCC2 (configuration not stated)
    18 | 12 | . | 4.6 | 8 | . | 7
Brc1ccc(-c2nn3c(-c4ccco4)nnc3s2)o1
    5 | 9 | 22193* | 20 | 2 | -8 | -22
Cc1ccc(C)c(NC(=O)Cn2c([N+](=O)[O-])cnc2C)c1
    6 | 7 | 8992 | 1.8 | 5 | -27 | -7
O=C(c1cccnc1)N1C2CCC1CC(O)(c1ccc(F)cc1)C2 (configuration not stated)
    2 | 5 | 13464 | 0.2 | -4 | -14 | -1
CC(OC(=O)CC1CCCCC1)C(=O)Nc1ccc(F)cc1 (configuration not stated)
    8 | -11 | 6056 | 1.1 | -1 | -19 | 3
CCCCOC(=O)c1nc(Cl)c(Cl)c(N)c1Cl
    3 | 7 | 9367 | 2.5 | -6 | 5 | 4
Cc1cc(C(=O)NNS(=O)(=O)c2ccccc2C(F)(F)F)nn1C(C)(C)C
    1 | -3 | 4077 | 3.6 | -5 | -40 | -4
CCN(CC)c1ccc2cc(S(=O)(=O)c3ccc(Cl)cc3)c(=O)oc2c1
    . | . | 3309 | -2.1 | 8 | 10 | -6
CC1CCN(S(=O)(=O)c2ccc(C(=O)Nc3nnc(C4=COCCO4)o3)cc2)CC1
    8 | 13 | 4979 | 22 | 2 | -1 | 12
COc1ccccc1NC(=S)N(Cc1cccnc1)Cc1ccco1
    11 | 7 | 4334 | 3.2 | -17 | -27 | 1
COc1ccc(S(=O)(=O)N2CCCC2CNC(=O)C(=O)NCc2ccccn2)cc1 (configuration not stated)
    -4 | -1 | 5474 | 5.7 | 3 | -13 | 5
CC(CCc1ccccc1)NC(=O)c1ccccc1Cl (configuration not stated)
    14 | 6 | . | 11 | 0 | 11 | 11
COc1ccccc1-c1cc(=O)c2c(O)ccc([N+](=O)[O-])c2o1
    25 | 4 | 3782 | 25 | -19 | -8 | 23
COC(=O)[C@@]1(Cc2ccc(OC)cc2)[C@H]2c3cc(C(=O)N4CCCC4)n(CCn4cc([N+](=O)[O-])nc4C)c3C[C@H]2CN1C(=O)c1ccccc1
    . | . | 4364 | . | -3 | -8 | .
COc1cc(C(=O)Nc2scc(-c3ccc(C)cc3)c2C(=O)O)cc(OC)c1OC
    -3 | 2 | 4034 | 14 | -5 | -25 | -13
Cc1ccc(N2C=Nc3ccc(C)c4nc(C)cc2c34)cc1
    . | . | 2470 | 0.8 | 1 | -13 | 6
NC(=O)c1ccc[n+](CC(=O)c2ccc(F)cc2)c1
    15 | 8 | 5709 | 4.5 | 3 | -10 | 6
O=C1C2CCCN2C(c2ccccc2F)N1c1cccc(Cl)c1 (configuration not stated)
    . | . | 5299 | 2.9 | 4 | -5 | 5
Cc1nn(C)cc1CNC(=O)Nc1ccc(Br)cc1Cl
    -1 | 4 | 10076 | 3.0 | -9 | -33 | 1
Clc1nc(N2CCOCC2)ncc1Br
    -2 | 5 | 5842 | 3.1 | 5 | -24 | 4
O=C(CCCn1c(=O)oc2ccccc21)Nc1ccccc1
    11 | 3 | 6194 | 4.3 | . | -18 | -2
CCOc1ccc(CNC(=O)C(C)n2ccc3cc(S(=O)(=O)N4CCCC4)ccc32)cc1 (configuration not stated)
    -11 | 5 | 4743 | -2.3 | 0 | -1 | -11
COc1ccccc1-n1ccnc(SCC(=O)NC2CCCC2)c1=O
    2 | -5 | 4394 | -1.9 | 3 | -18 | 5
Cc1cc(C)n2nc(N)c(N=Nc3ccccc3)c2n1
    84* | 47* | 3717 | 21 | -10 | -73 | 19
O=C(CCN1C(=O)c2ccccc2C1=O)NCc1ccccc1
    -4 | -2 | 4172 | 0.7 | -5 | 0 | -3
CCCCn1c(N)c(N(CCOC)C(=O)c2ccc(C)o2)c(=O)[nH]c1=O
    -6 | -9 | . | 1.8 | 0 | -23 | 3
CCOc1ccc(Cl)cc1CSc1n[nH]c(C)n1
    12 | 8 | 4402 | 3.2 | -1 | -18 | 8
Cc1ccc(C(C(=O)NCc2ccccc2)N(Cc2ccco2)C(=O)c2snc(C(N)=O)c2N)o1 (configuration not stated)
    2 | 0 | 6160 | 5.8 | 2 | -7 | 4
CCOc1ccc(S(=O)(=O)Nc2ccc(C(=O)N3CCCC3)cc2)cc1
    4 | -7 | 5706 | -2.2 | 6 | -11 | 8
CCN(CC)CCn1c(=N)n(CC(=O)c2ccc(C)cc2)c2ccccc21
    11 | 13 | 4824 | 2.3 | -15 | -6 | -1
O=S(=O)(NN=Cc1ccc(OC2CSC2)cc1)c1ccccc1
    6 | 13 | . | 2.4 | . | . | 37
O=C1CC(SCc2nc3ccccc3[nH]2)C(=O)N1c1ccc(F)cc1 (configuration not stated)
    . | . | 3784 | -0.7 | -4 | -25 | 4
Cc1onc(-c2ccccc2)c1C(=O)N/N=C/c1cccs1
    . | . | 3693 | . | 2 | 2 | .
COC(=O)[C@@]1(C)[C@H]2C(=O)N(Cc3ccccc3)C(=O)[C@H]2[C@H]2CN=C(SCc3ccccc3)N21
    5 | -3 | 3842 | 11 | . | -12 | 11
O=C1NCCN1CCN1C(=O)c2ccccc2NC1c1ccccc1 (configuration not stated)
    0 | 5 | 5669 | 2.5 | -4 | -30 | 13
NCCCNCCCCNCCCN
    . | . | 4270 | 4.4 | . | -10 | -1

In a second layout: entries from further up
molecule	Mtb hypoxia rep	Mtb hypoxia rep growth	Bead autofluor	RN4220 kill	BJeLR lethal	PrP 5UTR inh	ugtP null kill
Cc1ccc(C(C(=O)NCc2ccccc2)N(Cc2ccco2)C(=O)c2snc(C(N)=O)c2N)o1 (configuration not stated)	2	0	6160	5.8	2	-7	4
O=C(CCCn1c(=O)oc2ccccc21)Nc1ccccc1	11	3	6194	4.3	.	-18	-2
CCCCn1c(N)c(N(CCOC)C(=O)c2ccc(C)o2)c(=O)[nH]c1=O	-6	-9	.	1.8	0	-23	3
COc1ccccc1-n1ccnc(SCC(=O)NC2CCCC2)c1=O	2	-5	4394	-1.9	3	-18	5
CCN(CC)CCn1c(=N)n(CC(=O)c2ccc(C)cc2)c2ccccc21	11	13	4824	2.3	-15	-6	-1
O=S(=O)(NN=Cc1ccc(OC2CSC2)cc1)c1ccccc1	6	13	.	2.4	.	.	37
